Mtb H37Rv: Mycobacterium tuberculosis H37Rv growth inhibition, putative kinase inhibitor library, confirmatory dose response (AID 2842) | one-dose inhibition, % at 10 µg/mL; IC90 in µg/mL for titrated hits | 24,000 tested, 5.2% active | M. tuberculosis H37Rv growth inhibition; higher % means a stronger effect; some inactives read as strong as hits;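 active means confirmed in a dose series; about a fifth of its hits are not listed in these tables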;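 further: bacteria incubated one week before Alamar blue readout; 0% = bacteria only wells and 100% = bacteria with high antibiotic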
* = called active by the depositor.

SMILES | Mtb H37Rv
COc1cccc(-n2c(=O)[nH]c3c(C(N)=O)nc(-c4ccc(C)cc4)nc32)c1 | 14%
CC(C)N(C(=O)CSc1nc2c([nH]1)c(=O)n(C)c(=O)n2C)c1ccccc1 | -4%
CCOC(=O)c1c(-c2ccc(OC)cc2)csc1NC(=O)CSc1nnc2ccccn12 | -4%
CC(c1ccccc1)N1C(=O)CC(N2CCOCC2)C1=O (stereo not drawn) | -2%
COc1cccc(C(=O)Nc2ccc3nc(SC)sc3c2)c1 | 82%
CCC(C)n1c(=N)c(C#N)cc2c(=O)n3cccc(C)c3nc21 (stereo not drawn) | -5%
CCOC(=O)c1c(NC(=O)c2cc(=O)c3ccccc3o2)sc2c1CCC(C)C2 (stereo not drawn) | 5%
COc1ccc(C(=O)Nc2sc3c(c2C#N)CCN(Cc2ccccc2)C3)c(OC)c1 | 3%
CC1CCc2c(sc(NC(=O)c3cccnc3)c2C#N)C1 (stereo not drawn) | 2%
COc1ccc(C(=O)c2cn(CC(=O)Nc3ccc4c(c3)OCCO4)c3ccc(F)cc3c2=O)cc1 | 14%
O=C(CSc1nc2[nH]ncc2c(=O)n1-c1cccc2ccccc12)NC1CCCCC1 | 28%
O=C(C1COc2ccccc2O1)N(CCCn1ccnc1)c1nc2ccc(F)cc2s1 (stereo not drawn) | -7%
CCOC(=O)CSc1nnc(NC(=O)C2CC2)s1 | -15%
CCN1CCN(c2nc(NCCCN3CCOCC3)nc(N)c2[N+](=O)[O-])CC1 | -13%
CCC(Sc1ccc(Cl)cc1)C(=O)Nc1nnc(C(C)C)s1 (stereo not drawn) | 13%
COc1ccc(-c2ccc3nnc(SCc4c(F)cccc4Cl)n3n2)cc1 | 4%
Cc1ccc2cc(CCNC(=S)Nc3ccc([N+](=O)[O-])cc3)c(=O)[nH]c2c1C | 59%
CC(C)c1nnc(NC(=O)COc2cccc(Br)c2)s1 | 1%
O=c1cnnc(N/N=C/c2ccccc2)[nH]1 | 4%
Cc1[nH]c2ccccc2c1SCC(=O)N1CCCc2ccccc21 | 18%
COc1ccc(NC(=O)c2cnc3sccn3c2=O)cc1OC | -1%
Nc1nc(SCC(=O)N2CCC(Cc3ccccc3)CC2)[nH]c(=O)c1NC(=O)c1ccc(F)cc1 | -1%
c1ccc(Nc2nc(-c3ccccc3)[n+](-c3ccccc3)s2)cc1 | 58%
COc1cccc(NC(=O)Nc2nc3c(s2)C(=O)CC(C)(C)C3)c1 | 8%
CC1CCN(S(=O)(=O)c2c[nH]c(=O)[nH]c2=O)CC1 | -6%
CNC(=S)NNc1nc2sc3c(c2c(=O)[nH]1)CCCC3 | 16%
Cc1c(NS(=O)(=O)c2ccc(O)c(C(=O)O)c2)c(=O)n(-c2ccccc2)n1C | -20%
O=C(O)c1ccc(C(=O)NCC2CCCO2)c(C(=O)O)c1 (stereo not drawn) | -1%
CC1CN(C(=O)CSc2nnc(NC(=O)Nc3ccccc3)s2)CC(C)O1 (stereo not drawn) | -8%
CCOc1ccc(-n2c(=O)[nH]cc(C(=O)Nc3ccc(F)c([N+](=O)[O-])c3)c2=O)cc1 | 1%
Cc1ccccc1C(=O)Nc1nnc(-c2ccc(F)cc2)o1 | <0.2µg/mL*
CCOc1ccc2c(c1)c(=O)c(C(=O)c1ccc(F)cc1)cn2Cc1ccc(OC)cc1 | 2%
COc1ccccc1C1CC(c2c(-c3ccccc3)c3cc(Cl)ccc3[nH]c2=O)=NN1C(=O)CN1CCCCC1 (stereo not drawn) | -3%
Nc1ncnc(Nc2ccc(F)cc2F)c1[N+](=O)[O-] | 2%
O=C(Nc1sc2c(c1-c1nc3ccccc3s1)CCCC2)c1cc(=O)c2ccccc2o1 | 2%
COc1ccc(-c2nnc(NC(=O)c3ccc(OC(C)C)cc3)s2)c(OC)c1 | -3%
CC1=C(C(=O)Nc2ccc(Cl)cc2)C(c2ccccc2Cl)C(C#N)=C(SCC(N)=O)N1 (stereo not drawn) | 72%
COc1ccc(/C(O)=C2\C(=O)C(=O)N(Cc3cccnc3)C2c2ccccc2)cc1OC (stereo not drawn) | -43%
CCOc1ccc(C(=O)c2cn(Cc3ccc(OC)cc3)c3ccc(F)cc3c2=O)cc1 | 10%
COc1ccccc1OCC(=O)N1CCC2(CC1)CC(=O)c1ccccc1O2 | -4%
CC1(C)CC(=O)C2=C(C1)Nc1[nH]c(=O)[nH]c(=O)c1C2c1ccc(-c2cccc(C(F)(F)F)c2)o1 (stereo not drawn) | 9%
NS(=O)(=O)c1ccc(NC2=C(Cl)C(=O)N(c3ccccc3F)C2=O)cc1 | 13%
O=C(Nc1nc(-c2cccs2)c(C(=O)C(F)(F)F)s1)c1cc(-c2ccccc2)nc2ccccc12 | 24µg/mL*
Cc1cccc(-c2nnc(NC(=O)C(C)(C)C)s2)c1 | 66%
COc1cccc2cc(C(=O)C3=C(O)C(=O)N(CCCN(C)C)C3c3cccnc3)oc12 (stereo not drawn) | -2%
O=C(O)c1ccccc1NC1=C(Cl)C(=O)N(c2ccc(Br)cc2)C1=O | 69%
COc1ccc(-c2ccc(=O)n(CCNC(=O)c3sc(-c4ccccc4)nc3C)n2)cc1 | -9%
O=c1[nH]c(CSc2nc3ccccc3[nH]2)nc2c1cnn2-c1ccccc1 | 51%
O=C1N/C(=N\c2ccccn2)SC1Cc1ccccc1 (stereo not drawn) | 15%
Cc1cc(NCCN2CCCCCC2)n2c(nc3ccccc32)c1C#N | -2%
Cc1ccc2ncc(S(=O)(=O)c3ccccc3)c(N3CCCCC3)c2c1 | 13%
COc1cccc(C(=O)Nc2nc3c(s2)CC(C)CC3)c1 (stereo not drawn) | 14µg/mL*
O=C(Nc1nc2ccccc2s1)c1ccc(C(=O)c2ccccc2)cc1 | 5%
Cc1cn2c3c(=O)[nH]c(=O)n(C)c3nc2n1-c1ccc(S(N)(=O)=O)cc1 | -3%
COc1ccc(C2NC(=O)c3sc4nc(C5CC5)cc(-c5ccccc5)c4c3N2)cc1 (stereo not drawn) | 48%
Fc1cc(F)c2nc(N3CCN(c4nc5ccccc5s4)CC3)sc2c1 | -16%
Cc1ccc(-c2oc3ccccc3c(=O)c2OCC(N)=O)cc1 | 8%
CCS(=O)(=O)c1ccc(C(=O)Nc2c(C(N)=O)oc3ccccc23)cc1 | -2%
O=C(Nc1ncc(-c2ccccc2)s1)c1cc(-c2ccccc2)nc2ccccc12 | 38%
CCOC(=O)c1nn(-c2ccc(C(F)(F)F)cc2)c(=O)c2c(NC(=O)CC(C)(C)C)scc12 | 7%

The final two compounds of the part above come first, to join the parts.
SMILES | Mtb H37Rv
O=C(Nc1ncc(-c2ccccc2)s1)c1cc(-c2ccccc2)nc2ccccc12 | 38%
CCOC(=O)c1nn(-c2ccc(C(F)(F)F)cc2)c(=O)c2c(NC(=O)CC(C)(C)C)scc12 | 7%
Nc1c(C(=O)NCC2CCCO2)c2nc3ccccc3nc2n1/N=C/c1ccc(O)c(O)c1 (stereo not drawn) | 16%
Cc1ccc(-n2c(SCC(=O)Nc3cc(C)on3)nc3c([nH]c4ccccc43)c2=O)cc1 | 5%
COC(=O)CSC1=C(C#N)C(c2cccs2)C(C(=O)Nc2ccccc2C)=C(C)N1 (stereo not drawn) | -2%
Oc1cc(OCc2ccccc2Cl)ccc1-c1[nH]ncc1-c1ccccc1 | 7.7µg/mL*
CC(C)C(=O)Nc1ncc(Cc2cc(Cl)cc(Cl)c2)s1 | 6%
CC(C)(C)CC(=O)Nc1ccc2c(c1)NC(=O)C(C)(C)CO2 | 2%
O=c1ccnc(Nc2ccccc2O)[nH]1 | -4%
CCOC(=O)c1nn(-c2ccc(Cl)cc2)c(=O)c2c(NC(=O)c3ccccc3OCC)scc12 | 9%
O=C(OCc1nc2ccccc2s1)c1ccc([N+](=O)[O-])cc1 | 56%
CSc1nc2ccc3nc(NC(=O)c4ccc(C)c(C)c4)sc3c2s1 | 3%
Cc1ccccc1C(=O)N1CCN(c2nc(-c3ccccc3)c3cc(Cl)ccc3n2)CC1 | 10%
COc1cccc(NC(=O)Cn2cc(C(=O)c3ccccc3)c(=O)c3cc4c(cc32)OCO4)c1 | 2%
COc1ccc(C(=O)c2cn(CC(=O)Nc3ccc4c(c3)OCO4)c3ccc(F)cc3c2=O)cc1 | -1%
CC1CC(C)CN(C(c2ccccc2)c2sc3ncnn3c2O)C1 (stereo not drawn) | 29%
COc1ccc(N2C(=O)C3N=NN(CC(=O)Nc4ccccc4C)C3C2=O)cc1 (stereo not drawn) | -3%
COc1ccccc1Cn1cc2c(-c3ccccc3)nnc-2c2cc(OC)c(OC)cc21 | 7.6µg/mL*
O=C1CCc2cc(S(=O)(=O)NCc3cccs3)cc3c2N1CC3 | 1%
CCOc1ccc(/C=C(\C#N)C(=O)OCCN2C(=O)c3ccccc3C2=O)cc1OC | 6%
Cc1nnc(N2C(=O)C(=O)/C(=C(/O)c3ccc(Cl)cc3)C2c2ccc([N+](=O)[O-])cc2)s1 (stereo not drawn) | -16%
Fc1ccc(-c2nnc3c4cc5c(cc4n(Cc4ccc(Cl)cc4)cc2-3)OCCO5)cc1 | 66%

Molecules from the list above that have a nitro group on carbon, in the order listed:
SMILES | Mtb H37Rv
CCN1CCN(c2nc(NCCCN3CCOCC3)nc(N)c2[N+](=O)[O-])CC1 | -13%
Cc1ccc2cc(CCNC(=S)Nc3ccc([N+](=O)[O-])cc3)c(=O)[nH]c2c1C | 59%
CCOc1ccc(-n2c(=O)[nH]cc(C(=O)Nc3ccc(F)c([N+](=O)[O-])c3)c2=O)cc1 | 1%
Nc1ncnc(Nc2ccc(F)cc2F)c1[N+](=O)[O-] | 2%
O=C(OCc1nc2ccccc2s1)c1ccc([N+](=O)[O-])cc1 | 56%
Cc1nnc(N2C(=O)C(=O)/C(=C(/O)c3ccc(Cl)cc3)C2c2ccc([N+](=O)[O-])cc2)s1 (stereo not drawn) | -16%

Back to the main list with the five entries that preceded the break.
SMILES | Mtb H37Rv
COc1ccccc1Cn1cc2c(-c3ccccc3)nnc-2c2cc(OC)c(OC)cc21 | 7.6µg/mL*
O=C1CCc2cc(S(=O)(=O)NCc3cccs3)cc3c2N1CC3 | 1%
CCOc1ccc(/C=C(\C#N)C(=O)OCCN2C(=O)c3ccccc3C2=O)cc1OC | 6%
Cc1nnc(N2C(=O)C(=O)/C(=C(/O)c3ccc(Cl)cc3)C2c2ccc([N+](=O)[O-])cc2)s1 (stereo not drawn) | -16%
Fc1ccc(-c2nnc3c4cc5c(cc4n(Cc4ccc(Cl)cc4)cc2-3)OCCO5)cc1 | 66%
O=C(Nc1c(C(=O)Nc2ccc(OC(F)(F)F)cc2)oc2ccccc12)c1ccco1 | 78%
Cc1ccc(-c2csc(NC(=O)c3ccc(S(=O)(=O)N4CCCC(C)C4)cc3)n2)cc1C (stereo not drawn) | -4%
O=C(Nc1nnc(-c2ccc(Cl)cc2)s1)c1ccc2c(c1)OCO2 | -14%
C#CCSc1nc(N)c(NC(=O)c2cccc([N+](=O)[O-])c2C)c(=O)[nH]1 | 0%
Cc1ccc(C)c2[nH]c(=O)c(CCNC(=O)c3cc4ccccc4oc3=O)cc12 | 7%
CCOc1ccc2ccccc2c1C(=O)NCCc1cc2c(OC)ccc(OC)c2[nH]c1=O | 16%
COc1ccc(N2CCN(C(=O)NC3CC(=O)N(c4ccc(OC)cc4)C3)CC2)cc1 (stereo not drawn) | 5%
COc1ccc(N2C(=O)C3N=NN(CC(=O)Nc4ccc(Cl)cc4Cl)C3C2=O)cc1 (stereo not drawn) | -9%
O=C(/C=C/C=C/c1ccccc1)c1c(-c2ccccc2)c2cc(Cl)ccc2[nH]c1=O | 76%
CCC(C)n1c(=O)c2sccc2n2c(CCCC(=O)NCc3ccc(F)cc3)nnc12 (stereo not drawn) | -5%
C=CCn1c(SCCO)nc2c([nH]c3ccccc32)c1=O | 8%
CCOC(=O)c1cnc2ccc(OCC)cc2c1Nc1cccc(C)c1 | 14µg/mL*
CCOC(=O)CCC(=O)Nc1scc2c(C(=O)OCC)nn(-c3ccc(F)cc3)c(=O)c12 | 2%
Cc1sc(NC(=O)c2cccc(S(C)(=O)=O)c2)c(-c2nc3ccccc3s2)c1C | -7%
O=C(Cc1cccs1)Nc1nnc(-c2ccc(Cl)cc2)s1 | 1%
Cc1ccc(C(=O)c2sc3nc(C)c(C)c(C)c3c2N)cc1 | 1%
Cc1ccc(-c2c(C#N)c(N)nc(SCC(=O)NCc3ccccc3)c2C#N)cc1 | -4%
CC1C(=O)N2CCCc3cc(S(=O)(=O)Nc4cccc(F)c4)cc1c32 (stereo not drawn) | 3%
O=c1cc(N2CCC(Cc3ccccc3)CC2)[nH]c(=O)n1Cc1ccc(F)cc1 | -9%
Cc1ccc(-c2nnc3ccc(SCC(=O)Nc4ccccc4C)nn23)cc1 | -3%
COc1cc2c(=O)c(S(=O)(=O)c3ccc(F)cc3)cn(Cc3cccc(Cl)c3)c2cc1OC | -4%
COc1cccc(C(=O)Nc2c(C(=O)Nc3ccc4c(c3)OCCO4)oc3ccccc23)c1 | -2%
Cc1cc(=O)[nH]c2c(C)cc(S(=O)(=O)Nc3ccc(Br)cc3)cc12 | 3%
CCOc1cc(/C=N/Nc2ncnc3nc[nH]c23)ccc1O | -1%
N#C/C(=C\c1ccccc1C(=O)O)c1nc2ccccc2[nH]1 | -7%
Cc1cc(C)c2sc(NNC(=O)c3ccc(S(=O)(=O)N4CCOCC4)cc3)nc2c1 | 81%
Cc1cc2ccccc2n1CCNS(=O)(=O)c1ccc([N+](=O)[O-])cc1 | 11%
CC(=O)Nc1c(C(=O)Nc2ccc(F)c(Cl)c2)oc2ccccc12 | -4%
O=C(CC1CCS(=O)(=O)C1)Nc1nc(-c2ccc(Cl)cc2Cl)cs1 (stereo not drawn) | 13%
NC(=O)c1nc(-c2ccc(OCc3ccccc3)cc2)nc2c1[nH]c(=O)n2-c1ccc2c(c1)OCO2 | -3%
O=C(CCN1CCOCC1)Nc1c(-c2ccccc2)c2cc(Br)ccc2[nH]c1=O | -3%
COC(=O)c1sc(NC(=O)CSc2nnc3ccccn23)c(C(=O)OC)c1C | -5%
O=C(COc1ccc(Cl)cc1)Nc1c(C(=O)Nc2ccc([N+](=O)[O-])cc2)oc2ccccc12 | 1%

Screening data: PubChem, Southern Research Institute

An excerpt. The share of hits here may be higher or lower than overall.
